Compound activity from PubChem.
ClpP mod: qHTS Assay for Activators of ClpP; Potency, µM (titrated, usually from 57.5 µM), inactives show top-dose activity change, negative = active; purified B. subtilis ClpP, FRET peptide cleavage, 20 min; 1.9% of 340,000 active; AID 651965, 2013; ATP-dependent Clp protease proteolytic subunit (Bacillus subtilis (strain 168)), P80244; active = well fitted falling curve with a large enough effect; inconclusive = small, poorly fitted or top-dose-only effect; inactive = no such curve, though single readings can be large or run the other way; note: potency is the fitted concentration of half-maximal effect; the source files actives as falling curves though it sought activators and does not explain the sign; nearly all actives have a fitted effect of over 65% in size; many hits overshoot -100%
Target sequence (P80244 whole entry, looked up): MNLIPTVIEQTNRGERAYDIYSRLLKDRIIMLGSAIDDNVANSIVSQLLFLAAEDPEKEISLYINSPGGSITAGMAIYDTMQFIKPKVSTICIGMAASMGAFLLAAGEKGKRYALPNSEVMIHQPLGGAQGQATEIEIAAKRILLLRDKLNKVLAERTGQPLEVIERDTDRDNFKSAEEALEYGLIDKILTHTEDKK
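FRET quenching reversal measured ClpP activation: 10 microg/mL B. subtilis ClpP at pH 8 with the FRET-FV decapeptide, read at 430 nm after 320 nm excitation. The 20-min minus 0-min signal was scaled between DMSO/no-enzyme wells and ADEP (5.8 microM final).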
TRPML1 blocker: human mucolipin-1 channel inhibition | Q9GZU1 | TRPML1-inducible cells, Ca2+ dye fluorescence, FDSS; hits give low values; inhibition of EC80 agonist-evoked calcium signal | activity change, negative = inhibition, % (no concentration beside the values) | 0.02% of 390,000 active | AID 624415; in the data active means activity change below about -50%; inconclusive means about -30% to -50%; inactive means above about -30%;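 note: stimulus is agonist 54-4 at its EC80 concentration; % is set by controls: 0 for no effect and ±100 for the full control effect; compound concentration not given in the record; the text of the record puts the active cut at -80%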
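TRPML1-DL cells, Tet-induced overnight (~16 h, 37 °C) at 1,500 cells/well, were loaded with Ca8 no-wash dye plus quencher for 45-90 min at room temperature. Compounds were pinned during FDSS kinetic reading; agonist 54-4 at EC80 (4 uM final) then added.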
Menin-MLL FL inh: inhibitors of human menin-MLL interaction, wild-type MLL peptide; Fluorescence polarization, fluorescein-MLL peptide displacement from menin; FP activity change, % at 61.4 µM; 290,000 tested, under 10 active; AID 1766; inconclusive = falling polarisation curve, or a change in total fluorescence; inactive = total fluorescence flat and polarisation flat or rising; no compound was filed as active; the % refers to the polarisation; negative = inhibition;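 note: % of control where 0% means no effect; inhibitors lower the polarisation; unlabelled MLL peptide was the positive control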
Sfp inh: inhibitors of Bacillus subtilis Sfp phosphopantetheinyl transferase; Q9F4F7; Biochemical Sfp PPTase activity, qHTS; Potency, µM, for the others: max response, negative = inhibition, actives largely listed as inhibitors; 3.5% of 310,000 active; AID 1490; active = well fitted inhibition curve with a large enough effect; inconclusive = small, poorly fitted or top-dose-only effect, or another doubt; inactive = no such curve, though single readings can be large or run the other way;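 note: the enzyme is Sfp with the accession as filed and its product quenches rhodamine fluorescence; potency is the fitted concentration of half-maximal effect; 0% = enzyme reaction without inhibitor and -100% = no enzyme wells; top concentration of the series not given in the record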
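With Hepes-Na pH 7.6 buffer containing 10 mM MgCl2, Sfp (15 nM) modified BHQ-2-YbbR (12.5 uM) using rhodamine-CoA (5 uM). Two reads 30 minutes apart at 525/598 nm yielded each well's rate.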
PINK1 expr mod: changes PINK1 expression; Potency, µM (top dose mostly 76.6 µM), for the others: at the top dose activation (PINK1 increase), most hits filed as activators; AID 624263; 0.2% of 410,000 active; PINK1 immunofluorescence, high-content cytometry, 24 h; active = well fitted activation curve with a large enough effect; inconclusive = small, poorly fitted or top-dose-only effect; inactive = flat fitted curve, though single readings scatter; cell line not stated here;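 note: potency is the fitted concentration of half-maximal effect; % of control where 0% means no effect; nearly all actives have a fitted effect of over 65% in size; a mitochondrial uncoupler was the plate control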
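Stable cell line, 250 cells/well, 12 h attachment; compounds pinned at 5 concentrations, 24 h; CCCP control. Fixed with nuclear dye, primary antibodies 12 h at 10 degrees C, secondary plus cell stain; laser-scanning cytometer read.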
TRPV1 PAM: enhances activation of the human vanilloid receptor TRPV1; Q8NER1; TRPV1-expressing cells, Fluo-8 calcium influx, capsaicin EC20 potentiation; host cell line not named in the record; control for the full effect not named in the record; potentiation, % at 8.33 µM; 0.02% of 320,000 active; AID 540277; active means potentiation above 80%; inconclusive means 30% to 80%; inactive means below 30%; note: 0% is about no effect
Target sequence (Q8NER1 whole entry, looked up): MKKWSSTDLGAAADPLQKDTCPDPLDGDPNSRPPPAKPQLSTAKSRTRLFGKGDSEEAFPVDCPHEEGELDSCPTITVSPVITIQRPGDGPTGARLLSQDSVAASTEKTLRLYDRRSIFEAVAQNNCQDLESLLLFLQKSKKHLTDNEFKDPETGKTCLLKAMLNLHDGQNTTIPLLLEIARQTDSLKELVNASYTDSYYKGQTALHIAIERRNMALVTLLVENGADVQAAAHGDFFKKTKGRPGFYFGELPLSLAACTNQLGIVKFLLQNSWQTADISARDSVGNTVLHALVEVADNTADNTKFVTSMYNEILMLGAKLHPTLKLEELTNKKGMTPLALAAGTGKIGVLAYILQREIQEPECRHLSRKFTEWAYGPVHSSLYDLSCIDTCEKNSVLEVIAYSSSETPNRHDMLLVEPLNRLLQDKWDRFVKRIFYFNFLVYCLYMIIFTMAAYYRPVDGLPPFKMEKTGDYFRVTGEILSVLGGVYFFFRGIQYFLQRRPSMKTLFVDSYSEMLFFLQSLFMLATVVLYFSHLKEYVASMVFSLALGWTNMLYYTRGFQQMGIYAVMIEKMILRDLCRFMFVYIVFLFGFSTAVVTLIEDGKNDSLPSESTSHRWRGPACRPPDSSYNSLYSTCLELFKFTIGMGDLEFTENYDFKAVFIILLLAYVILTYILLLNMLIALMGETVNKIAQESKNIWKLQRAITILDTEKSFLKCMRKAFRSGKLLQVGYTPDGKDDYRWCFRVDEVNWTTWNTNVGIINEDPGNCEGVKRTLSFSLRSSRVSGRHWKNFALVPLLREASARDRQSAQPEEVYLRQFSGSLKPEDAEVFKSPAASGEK
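Fluo-8 calcium influx in TRPV1-expressing cells, kinetic read (ex 480/em 520 nm). Compound added and read 3 min for agonist activity, followed by capsaicin at EC20 final and 2 min further read for enhancement.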
TRPML1 agonist: human mucolipin-1 channel agonism | Q9GZU1 | TRPML1-expressing cells, Ca2+ dye fluorescence, FDSS; host cell line not named in the record; reference of the full effect not given here | activation, % (no concentration beside the values) | 0.12% of 410,000 active; in the data active = activation above about 50%; inconclusive = about 30% to 50%; inactive = below about 30%; note: 0% is about no effect; the text of the record puts the active cut at 80%
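TRPML1-DL cells, Tet-induced overnight (~16 h, 37 degrees C), loaded 45-90 min at room temperature with Ca8 no-wash calcium dye plus quencher. FDSS fluorescence: 10 s baseline, compound pin-transfer, 110 s agonist read, then EC80 54-4 (4uM final) and 110 s antagonist read.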
Numbers without * were called inactive; ? = inconclusive; / = no result given; [ ] = another dose, or the depositor's remark.

Structure,Menin-MLL FL inh,TRPML1 blocker,TRPML1 agonist,ClpP mod,Sfp inh,PINK1 expr mod,TRPV1 PAM
CC(Sc1ccc2c(c1)OCCO2)C(=O)Nc1ccc(N2CCOCC2)cc1 (configuration not stated),1.2,-13.1,-0.3,/,2.3%,0.4%,16.5
ON(CCc1ccccn1)Cc1ccccc1,/,16.2,-0.3,-0.4%,/,3.2%,/
NC(=O)C1CCCN(C(=O)c2[nH]c(C(F)(F)F)nc2-c2ccccc2)C1 (configuration not stated),/,/,0.0,-0.9%,/,1.9%,/
Clc1ccccc1-c1ccc2ncnc(N3CCNCC3)c2c1,-0.6,/,/,/,6.2%,-0.5%,/
CCOC(=O)c1cc(-c2ccc(C)cc2)n(CCC(=O)Nc2ccc(C(C)C)cc2)c1C,/,-8.9,-0.4,-18.1%,/,1.6%,/
CN(C)c1ccc(/C=C2\SC(=O)N(CCc3nnc(N)s3)C2=O)cc1,?,5.5,7.7,/,3.1%,?,4.6
O=C(NC(=S)NCCN1CCOCC1)c1ccc(F)cc1,4.4,-4.2,0.8,2.6%,6.1%,-0.7%,-1.4
Cc1ccc2cccc(OC(=O)c3c(F)cccc3Cl)c2n1,/,/,-0.6,-1.6%,/,3.9%,/
CC(C)(C)c1cc(C(=O)N/N=C/c2ccco2)n[nH]1,0.1,-5.6,1.0,0.8%,17.3%,0.9%,-4.3
CCSc1nc2c([nH]c3ccccc32)c(=O)n1-c1ccc(F)cc1,/,-4.9,2.2,-8.6%,/,1.0%,/
NNC(=O)c1nc(-c2ccccc2)n2c1CCCCC2,-6.6,0.2,-0.3,1.2%,6.4%,?,4.2
COc1ccc(N(Cc2cccs2)C(=O)c2ccc(OCC(C)C)cc2)cc1,/,-7.3,1.6,0.1%,/,8.1%,/
CC1(C)CC(=O)C2=C(C1)N(CC1CCCO1)C(=O)C2(O)C(F)(F)F (configuration not stated),-0.9,-23.1,-0.8,-1.6%,9.8%,-0.6%[38.3 µM],23.6
COc1ccc(OCC(=O)N2CCN(c3cccc(C(F)(F)F)c3)CC2)cc1,0.2,7.6,11.3,-8.0%,0.9%,-1.5%,-23.6
Cc1ccccc1NC(=O)Cn1nnc(S(=O)(=O)c2ccc(C(C)(C)C)cc2)c1N,-1.0,8.4,2.4,-4.4%,11.4%,19.9%,0.8
COc1ccc2c(COC(=O)c3ccc(C)c(S(=O)(=O)N4CCOCC4)c3)cc(=O)oc2c1,/,-1.2,0.6,25.1µM*,/,0.6%,/
Cc1ccc(-c2cc(C(F)F)n3ncc(C(=O)Nc4ccc(S(=O)(=O)Nc5ccccc5C)cc4)c3n2)cc1,0.2,-1.8,0.2,-3.8%,-5.5%,10.4%,-1.1
O=C(CSc1nc(-c2ccco2)nc2cc(=O)[nH]n12)Nc1ccccc1Cl,/,-17.5,-0.4,1.0%,/,1.3%,/
COc1ccc(S(=O)(=O)NC(CC(=O)NCCc2ccc(OC)c(OC)c2)C(C)C)cc1 (configuration not stated),4.5,13.3,1.1,/,6.8%,0.9%,2.9
COCCNC(=O)C(=O)Nc1ccc2c(c1)N(S(=O)(=O)c1cccs1)CCC2,/,-23.9,-0.3,0.7%,/,12.3%,9.5
Cc1cc(C)n(-c2ccc(C(=O)N3CCC(CO)(Cc4ccccc4)CC3)cc2)n1,1.5,6.0,0.7,-0.8%,-4.2%,-0.3%,6.6
CCOC(=O)N1CCN(c2c(NCc3ccc(N(C)C)cc3)c(=O)c2=O)CC1,-2.0,17.3,-1.2,-2.6%,20.8%,1.9%,-8.2
O=C(NNC(=O)c1ccccc1-n1cccc1)c1ccc(Cl)c(Cl)c1,6.8,-10.1,6.6,2.6%,24.3%,-1.1%,-3.8
Cc1ccc(S(=O)(=O)N2c3ccccc3NC(=O)CC2C)cc1 (configuration not stated),3.6,0.7,0.7,-0.6%,7.3%,0.7%,5.1
CC1(C)CC(=O)c2cc(C(=O)Nc3cccc4ccccc34)c(=O)[nH]c2C1,/,/,-0.5,-1.4%,/,-0.4%,/
CC(C)=CC(=O)N1CCC(Oc2cccc(C(=O)NCc3ccccn3)c2)CC1,/,3.2,-0.1,-4.0%,/,0.9%,/
CN(Cc1ccccc1)C(=O)CN1C(=O)c2ccccc2S1(=O)=O,-2.3,2.1,1.2,/,13.3%,0.6%,-0.7
CCCc1nn2c(=O)cc(COC(=O)c3ccccc3NC(=O)C3CCCCC3)nc2s1,/,-7.3,0.9,-4.6%,/,2.0%,/
CCOc1ccc(NC(=S)Nc2ccc(F)cc2)cc1,-2.4,/,/,-0.6%,-1.4%,2.5%,2.4
Cc1ccc(S(=O)(=O)N/N=C/c2cc(Br)c(C)o2)cc1,7.9,-8.5,1.2,1.1%,-28.5%,4.4%,5.0
CCC1(CC(C)C)SC(N)=NC1=O (configuration not stated),/,-16.9,-0.6,0.6%,/,-1.8%,/
Cn1cccc1C(=O)NC(=O)COC(=O)c1cc(S(=O)(=O)N2CCCCC2)ccc1Cl,2.7,-1.3,-0.4,/,0.3%,2.2%,8.7
O=C(Nc1sc2c(c1C(=O)O)CCCC2)c1ccc(Cl)cc1,1.6,-3.7,-0.9,/,8.0%,1.0%,5.0
COc1cccc(-c2cc3onc(-c4ccccc4)c3c(=O)n2C)c1,/,12.8,-0.7,-17.1%,/,2.4%,?
COc1ccc(S(=O)(=O)N2CCCOC2CNC(=O)C(=O)NCCCN2CCOCC2)cc1C (configuration not stated),/,-2.1,0.4,0.3%,6.5%,2.0%,3.8
CCNC1=C(Cl)C(=O)c2ccccc2C1=O,7.8,15.8,2.1,1.0%,-7.2%,-0.8%,28.8
COc1cc(C)ccc1OCCSc1nc2ccc(NC(=O)c3ccc4c(c3)OCO4)cc2s1,/,-4.3,1.1,22.4µM*,/,0.9%,/
Cc1cc(OCC(=O)OCC(=O)NCC2CCCO2)ccc1Cl (configuration not stated),/,5.7,0.1,2.5%,/,-0.7%,-2.6
Cc1ccc(C(=O)NCc2nc3ccccc3[nH]2)o1,-1.0,-4.1,-0.6,-0.8%,8.5%,0.0%,-0.9
O=C(NC(Nc1ncc(S(=O)(=O)c2ccc([N+](=O)[O-])cc2)s1)(C(F)(F)F)C(F)(F)F)c1ccc(Cl)cc1,-1.1,26.8,2.0,-0.1%,18.7%,?,-10.0
O=S(=O)(c1ccc(NC(=S)NCc2cccnc2)cc1)N1CCCCC1,-1.6,26.2,1.3,2.0%,3.3%,0.7%,-12.7
Cc1ccc(C)c(CN2CCC(n3nccc3NC(=O)C3CCCC3)CC2)c1,-1.9,-26.9,0.8,-1.5%,10.9%,-2.4%,-23.2
CCOc1ccc(OCC)c(NC(=O)c2cc3ccccn3n2)c1,/,14.5,-1.2,-20.0%,/,2.0%,/
CC1CCN(C(=O)Cn2cc(SCc3cccc(F)c3)c3ccccc32)CC1,/,60.1,1.9,2.2%,/,0.2%,/
Cc1ccc(CCNC(=O)CCS(=O)(=O)c2cc3c(cc2Cl)NC(=O)CO3)cc1,/,4.5,0.9,0.6%,/,1.2%,/
O=C1c2ccccc2C(=O)N1CC#CCN1CCN(C(c2ccccc2)c2ccccc2)CC1,-0.6,-4.5,0.8,0.9%,-17.6%,-0.1%,8.6
COC(=O)c1cccc(NC(=O)CSc2nnc(COc3ccc(C#N)cc3)n2-c2ccccc2)c1,4.0,-1.4,0.9,-1.2%,8.4%,-1.9%,-2.9
O=C(NCc1cccnc1)C1CCN(Cc2cc3ccccc3n2Cc2ccccc2)CC1,/,27.0,1.5,-1.7%,/,2.2%,/
COc1cc2nc(N(CCCN(C)C)C(=O)c3ccc(S(=O)(=O)N(C)C4CCCCC4)cc3)sc2cc1OC,/,-7.3,0.9,-1.9%,/,-1.3%,2.6
O=C(O)CCCC(=O)Nc1c(F)c(F)c(F)c(F)c1F,-0.3,-16.2,0.0,0.5%,5.2%,1.3%,4.9
CCOC(=O)c1c(NC(=O)CSc2nc(-c3ccc(OC)cc3)cc(C(F)(F)F)n2)sc(C)c1C,/,-3.3,0.0,-0.7%,/,-0.5%,/
CCC(=O)N1c2ccc(S(=O)(=O)CCC(=O)Nc3nccs3)cc2CC1C (configuration not stated),4.2,6.1,1.1,2.3%,5.1%,1.2%,-0.5
Cc1ccc(NC(=O)CSc2nc3c(cc2C#N)C(=O)CCC3)cc1S(=O)(=O)N(C)C,1.2,0.8,1.8,2.5%,3.6%,17.6%,0.9
COc1cc(OC)cc(C(=O)NCCCCc2ccccc2)c1,/,2.5,2.1,/,/,3.3%,/
Cn1nnnc1CCOCCc1nnnn1C,1.8,-5.7,-0.2,?,3.6%,1.3%,-4.7
O=C(/C=C/NNC(=O)c1ccccc1)c1ccccc1,7.0,22.4,0.4,-0.5%,13.5%,1.1%,-12.3
O=C(NCc1ccccc1)c1ccc(C(=O)NCc2ccccc2)cc1,/,-21.7,0.2,0.2%,/,?,/
O=C(c1csc2c1CCCC2)N1CCN(c2cccc(C(F)(F)F)c2)CC1,5.0,-2.4,0.8,-0.9%,3.5%,4.2%,-1.7
CC1CN(C(=O)COC(=O)c2ccc3ncsc3c2)CC(C)O1 (configuration not stated),/,12.7,-0.4,/,/,4.1%,/
CC(=O)C1CCC2C3CC(C)C4=CC(=O)CCC4(C)C3C(=O)CC12C (configuration not stated),/,18.4,3.4,-3.1%,/,5.2%,/
CS(=O)(=O)Cc1ccc(C(=O)NCC2(N3CCCCC3)CCCCC2)cc1,-13.2,-3.5,1.9,/,19.3%,-0.7%,6.5
COCCn1c(-c2ccccc2)csc1=Nc1cccnc1,-2.4,26.8,3.0,/,6.1%,-0.8%,-14.8
